gsp antag = antagonizes gsp, the McCune-Albright syndrome mutation. gsp-mutant cells, cAMP HTRF, 30 min; control for the full effect not named in the record. 340,000 compounds, 0.4% hits. Potency, µM (doses to about 76.9 µM), for the others: at the highest dose activity change, negative = inhibition, most hits filed as inhibitors; active = falling curve of any shape with a large fitted effect; inconclusive = falling curve, mostly with a smaller effect; inactive = flat or rising curve; cell line not stated here;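 note: intracellular cAMP measured with PDE inhibitor Ro 20-1724 present during compound exposure; potency is the fitted concentration of half-maximal effect; % is set by controls: 0 for no effect and ±100 for the full control effect; nearly all actives have a fitted effect of over 65% in size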
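Measurement of cellular cAMP by homogeneous time-resolved fluorescence following a 30 min compound exposure at 37C. The PDE inhibitor […] was present throughout; the assay buffer was DPBS with 0.05% BSA and 0.005% Tween 20.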
D2 agonist = activates the human D2 dopamine receptor; P14416; DiscoveRx PathHunter D2 beta-arrestin, luminescence, 90 min; 100% = 57 uM dopamine signal; activation, % (test concentration not listed); 360,000 compounds, 0.084% hits; in the data active = activation above about 40%; inconclusive = about 15% to 40%; inactive = below about 15%; note: compound concentration not given in the record; the text of the record calls up to 30% inactive
Target sequence (P14416 whole entry, looked up): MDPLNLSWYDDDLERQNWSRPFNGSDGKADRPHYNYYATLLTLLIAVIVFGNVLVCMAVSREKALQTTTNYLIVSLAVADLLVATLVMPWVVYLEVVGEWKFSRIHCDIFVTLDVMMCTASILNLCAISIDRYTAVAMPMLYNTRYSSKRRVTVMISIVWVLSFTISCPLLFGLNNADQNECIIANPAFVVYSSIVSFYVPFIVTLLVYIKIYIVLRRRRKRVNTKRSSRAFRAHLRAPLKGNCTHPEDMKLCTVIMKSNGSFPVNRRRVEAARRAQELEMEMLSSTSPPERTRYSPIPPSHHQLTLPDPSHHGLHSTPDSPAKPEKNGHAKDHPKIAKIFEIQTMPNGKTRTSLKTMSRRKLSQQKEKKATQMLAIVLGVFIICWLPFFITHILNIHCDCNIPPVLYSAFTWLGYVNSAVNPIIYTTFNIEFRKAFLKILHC
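Agonist mode: compounds alone added to overnight-plated D2 PathHunter cells for 90 min at 37 C, with 57 uM final dopamine (EC100) defining full response. Beta-arrestin recruitment detected by chemiluminescent reagent, read after 1 h at ambient temperature.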
D2 potentiator = human D2 receptor positive allosteric modulation. P14416. DiscoveRx D2 beta-arrestin cells, luminescence, 90 min; 100% = 57 uM dopamine signal. potentiation, % (concentration not given with the values). 360,000 compounds, 0.23% hits. AID 624464; active = potentiation of 50% or more; inconclusive = 30% to 50%; inactive = 30% or less;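 note: tested on top of an EC20 dose of dopamine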
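PathHunter beta-arrestin assay in DiscoveRx D2 cells. Compounds were added with an EC20 of dopamine (50 nM final) for 90 min at 37 deg C. Luminescence was read 1 h after detection reagent, with 57 uM dopamine as the EC100 control.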
Six1-Eya2 inh = blocks human Six1 binding to Eya2; Q15475+O00167; AlphaScreen GST-Six1/His-Eya2 binding, biochemical; hits give low values; control for the full effect not named in the record; activity change, % (no concentration beside the values); 360,000 compounds, 0.56% hits; AID 651725; in the data active = activity change below about -65%; inconclusive = about -30% to -65%; inactive = above about -30%; note: % is set by controls: 0 for no effect and ±100 for the full control effect
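GST-Six1 + His-Eya2 (5X stock: 250/500 nM); Tris pH 8.0, 300 mM NaCl, 0.05% BSA, 0.02% Tween 20; GSH donor/Ni acceptor beads; 1 h 37 °C dark; AlphaScreen readout.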
gsp agonist = activates gsp, the McCune-Albright syndrome mutation; gsp mutant cells, cAMP HTRF, 30 min; control for the full effect not named in the record; Potency, µM (doses to about 76.9 µM), for the others: at the top dose activation (cAMP increase), hits mostly activators; 340,000 compounds, 0.13% hits; active = well fitted activation curve with a large enough effect; inconclusive = small, poorly fitted or top-dose-only effect, or another doubt; inactive = no such curve, though single readings can be large or run the other way; cell line not stated here;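 note: phosphodiesterase inhibitor Ro 20-1724 added with compounds to block cAMP breakdown; potency is the fitted concentration of half-maximal effect; nearly all actives have a fitted effect of over 60% in size; about a fifth of the inactives were tested at one dose only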
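Cells in DMEM/10% FBS with G418 were pretreated with compounds in DMSO plus […] (300 uM stock) for 30 min at 37C. cAMP was measured by HTRF (cAMP-d2 plus anti-cAMP antibody-K) after 30 min at room temperature.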
CtBP-E1A blk = CtBP/E1A binding inhibition | activity change, % (test concentration not listed) | 340,000 compounds, 0.49% hits | AlphaScreen GST-E1A/His-CtBP binding, 1536-well; hits give low values; control for the full effect not named in the record; in the data active means activity change below about -65%; inconclusive means about -30% to -65%; inactive means above about -30%; note: % is set by controls: 0 for no effect and ±100 for the full control effect
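AlphaScreen with 125 nM GST-E1A and 125 nM His-CtBP (5X stocks) in Tris pH 8.0, 300 mM NaCl, BSA, Tween 20, TCEP. Compounds preincubated 2 h at 37 deg C, then glutathione donor/nickel acceptor beads added for 1 h at 37 deg C in dark.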
* hit, by the source's call; [ ] = another dose, or the depositor's remark.

Results for Cc1ccc(Cl)cc1NC(=O)C1COc2ccccc2O1 (stereo not drawn) ?
gsp antag: -8%; D2 agonist: -3.7; D2 potentiator: -9; Six1-Eya2 inh: 9; gsp agonist: -1%[15.4 µM]; CtBP-E1A blk: 16

Results for CC1(C)CC(=O)C2=C(C1)N(C1CCCCC1)C(=O)C2(O)C(F)(F)F (stereo not drawn) ?
gsp antag: 1%; D2 agonist: -2.0; D2 potentiator: 11; Six1-Eya2 inh: 23; gsp agonist: inconclusive; CtBP-E1A blk: 0

What do the screens show for `C=CCn1c(SCC(=O)NC(=O)NCc2ccco2)nc2sc(C)c(C)c2c1=O`?
gsp antag: 17%; D2 agonist: 4.1; D2 potentiator: -7; Six1-Eya2 inh: -19; gsp agonist: inconclusive; CtBP-E1A blk: -6

How did CCc1ccc(C(=O)N/N=C(\C)c2ccncc2)s1 do in these assays?
gsp antag: 17%; D2 agonist: -3.4; D2 potentiator: -20; Six1-Eya2 inh: -13; gsp agonist: -25%; CtBP-E1A blk: -23

What do the screens show for `CC(C)c1ccc(N(CC(=O)NCc2ccco2)C(=O)CCC(=O)Nc2ccccn2)cc1`?
gsp antag: -14%; D2 agonist: -1.9; D2 potentiator: -13; Six1-Eya2 inh: -5; gsp agonist: -1%[15.4 µM]; CtBP-E1A blk: -15

What do the screens show for `O=C(Nc1ccccc1)Nc1ccc(S(=O)(=O)N2CCCCC2)cc1`?
gsp antag: -34%; D2 agonist: 2.1; D2 potentiator: 1; Six1-Eya2 inh: -9; gsp agonist: 16%; CtBP-E1A blk: -8

What do the screens show for `COc1ccc(CN2CC[C@H]3C=CC[C@@H](C(=O)N4CCOCC4)[C@H]3C2=O)cc1OC`?
gsp antag: 6%; D2 agonist: -1.9; D2 potentiator: 1; Six1-Eya2 inh: 8; CtBP-E1A blk: 7

How did CCOC(=O)N1CCN(C(=O)CNC2CCCCCCC2)CC1 do in these assays?
gsp antag: 10%; D2 agonist: -1.9; D2 potentiator: -11; Six1-Eya2 inh: 3; gsp agonist: 2%

How did CCc1ccc(NC(=O)C2CC(=O)N=C(N)S2)cc1 (stereo not drawn) do in these assays?
gsp antag: 6%; D2 agonist: -0.9; D2 potentiator: -8; Six1-Eya2 inh: 4; gsp agonist: 5%; CtBP-E1A blk: 2

How did OC[C@@H]1CN(Cc2ccc(-c3ccccc3)cc2)C[C@H](n2cnc3c(NCc4ccncc4)ncnc32)O1 do in these assays?
D2 agonist: 6.1; D2 potentiator: -16; Six1-Eya2 inh: -5; CtBP-E1A blk: -11

What do the screens show for `COC(=O)c1sccc1NC(=S)NCc1ccc(Cl)cc1`?
gsp antag: -10%; D2 agonist: -3.4; D2 potentiator: -2; Six1-Eya2 inh: -6; gsp agonist: 0%[15.4 µM]; CtBP-E1A blk: 2

What do the screens show for `C[C@H](NC(=O)c1ncn2c1c(=O)[nH]c1ccccc12)c1ccccc1`?
D2 agonist: -3.8; Six1-Eya2 inh: -13; gsp agonist: inconclusive; CtBP-E1A blk: -27

How did COc1ccc(C2C(C(=O)O)c3ccccc3C(=O)N2Cc2ccco2)cc1 (stereo not drawn) do in these assays?
gsp antag: -8%; D2 agonist: 4.3; D2 potentiator: -4; Six1-Eya2 inh: 0; gsp agonist: -7%[15.4 µM]; CtBP-E1A blk: -7

What do the screens show for `COc1ccc(-n2cc(-c3ccccc3)c3c(N4CCOCC4)ncnc32)cc1`?
gsp antag: inconclusive; D2 agonist: inconclusive; D2 potentiator: 62*; Six1-Eya2 inh: -24; gsp agonist: -14%[15.4 µM]; CtBP-E1A blk: -21

What do the screens show for `OCCC1CN(Cc2ccc3nsnc3c2)CCN1C1CCCCC1` (stereo not drawn)?
gsp antag: 9%; D2 agonist: -1.1; D2 potentiator: -12; Six1-Eya2 inh: -1; gsp agonist: 19%; CtBP-E1A blk: 6

Quoted from the listing (5 entries):
How did OC[C@@H]1CN(Cc2ccc(-c3ccccc3)cc2)C[C@H](n2cnc3c(NCc4ccncc4)ncnc32)O1 do in these assays?
D2 agonist: 6.1; D2 potentiator: -16; Six1-Eya2 inh: -5; CtBP-E1A blk: -11

What do the screens show for `COC(=O)c1sccc1NC(=S)NCc1ccc(Cl)cc1`?
gsp antag: -10%; D2 agonist: -3.4; D2 potentiator: -2; Six1-Eya2 inh: -6; gsp agonist: 0%[15.4 µM]; CtBP-E1A blk: 2

What do the screens show for `C[C@H](NC(=O)c1ncn2c1c(=O)[nH]c1ccccc12)c1ccccc1`?
D2 agonist: -3.8; Six1-Eya2 inh: -13; gsp agonist: inconclusive; CtBP-E1A blk: -27

How did COc1ccc(C2C(C(=O)O)c3ccccc3C(=O)N2Cc2ccco2)cc1 (stereo not drawn) do in these assays?
gsp antag: -8%; D2 agonist: 4.3; D2 potentiator: -4; Six1-Eya2 inh: 0; gsp agonist: -7%[15.4 µM]; CtBP-E1A blk: -7

What do the screens show for `COc1ccc(-n2cc(-c3ccccc3)c3c(N4CCOCC4)ncnc32)cc1`?
gsp antag: inconclusive; D2 agonist: inconclusive; D2 potentiator: 62*; Six1-Eya2 inh: -24; gsp agonist: -14%[15.4 µM]; CtBP-E1A blk: -21

Additional records follow.
How did Cc1cc(N/N=C/c2ccc(O)cc2O)nc(N2CCOCC2)n1 do in these assays?
gsp antag: 13%; D2 agonist: 5.4; D2 potentiator: 4; Six1-Eya2 inh: inconclusive; gsp agonist: -28%[15.4 µM]; CtBP-E1A blk: inconclusive

Results for COc1ccc(C(CNC(=O)c2ccccc2SC)N(C)C)cc1 (stereo not drawn) ?
gsp antag: 10%; D2 agonist: -2.2; D2 potentiator: -10; Six1-Eya2 inh: 9; gsp agonist: -9%[15.4 µM]; CtBP-E1A blk: 1

What do the screens show for `CC1Cc2ccccc2N1CC(=O)NCc1ccccc1Cl` (stereo not drawn)?
gsp antag: 3%; D2 agonist: 0.9; D2 potentiator: -17; Six1-Eya2 inh: -5; gsp agonist: -35%[inhibitor]; CtBP-E1A blk: -18

Results for COCCn1nnnc1C(CC(C)C)N1CCN(c2ccccc2)CC1 (stereo not drawn) ?
gsp antag: 8%; D2 agonist: 0.7; D2 potentiator: -2; Six1-Eya2 inh: 9; gsp agonist: 24%; CtBP-E1A blk: -1

Results for Cc1ccc(O)c(C2=NCCNC(C(F)(F)C(F)F)=C2)c1 ?
gsp antag: 2%; D2 agonist: -4.4; D2 potentiator: -30; Six1-Eya2 inh: -5; gsp agonist: 0%; CtBP-E1A blk: 6

How did Cc1ccc(C(=O)Nc2ccc(S(=O)(=O)N3CCc4ccccc4C3)cc2)o1 do in these assays?
gsp antag: -3%; D2 agonist: -1.1; D2 potentiator: 0; Six1-Eya2 inh: -8; gsp agonist: 0%; CtBP-E1A blk: -11

How did O=C(O)c1ccc2c(=O)n3c(nc2c1)/C(=C/c1ccc(F)cc1)CC3 do in these assays?
gsp antag: inconclusive; D2 agonist: 0.3; D2 potentiator: -6; Six1-Eya2 inh: -4; gsp agonist: 5%[15.4 µM]; CtBP-E1A blk: -4

How did CC12c3ccccc3C(c3ccccc31)C1C(=O)N(Cc3cccnc3)C(=O)C12 (stereo not drawn) do in these assays?
gsp antag: 6%; D2 agonist: -1.3; D2 potentiator: -16; Six1-Eya2 inh: -7; gsp agonist: -14%; CtBP-E1A blk: -9

Results for Cc1cc2c(N3CCCCC3C)ncnc2s1 (stereo not drawn) ?
gsp antag: -6%[15.4 µM]; D2 agonist: -2.6; D2 potentiator: 8; Six1-Eya2 inh: 4; gsp agonist: 29%; CtBP-E1A blk: 11

How did CCCOc1ccc([N+](=O)[O-])c(N)c1 do in these assays?
gsp antag: -4%; D2 agonist: 0.0; D2 potentiator: -5; Six1-Eya2 inh: 4; gsp agonist: 18%[15.4 µM]; CtBP-E1A blk: 0

How did Cn1c(NCc2ccccc2O)nc2ccccc21 do in these assays?
gsp antag: 1%; D2 agonist: -5.0; D2 potentiator: -9; Six1-Eya2 inh: 0; gsp agonist: -8%; CtBP-E1A blk: -3

What do the screens show for `COc1cc(OCC(N)=O)cc(OC)c1OC`?
gsp antag: 6%; D2 agonist: 5.0; D2 potentiator: 5; Six1-Eya2 inh: 3; gsp agonist: 1%[15.4 µM]; CtBP-E1A blk: -3

What do the screens show for `O=C(NCCc1csc(-c2cccc(F)c2)n1)c1ccco1`?
gsp antag: -3%; D2 agonist: 3.2; D2 potentiator: -5; Six1-Eya2 inh: -3; gsp agonist: 25%; CtBP-E1A blk: -11

Results for COc1ccc(CC(=O)NNc2ncnc3c2cnn3Cc2ccccc2)cc1OC ?
gsp antag: -6%; D2 agonist: -4.9; D2 potentiator: -5; Six1-Eya2 inh: 0; gsp agonist: 11%[15.4 µM]; CtBP-E1A blk: 1

Results for Cc1cc(NC(=O)CSc2nc3sc(C)c(C)c3c(=O)n2C2CCCC2)no1 ?
gsp antag: 6%; D2 agonist: 0.1; D2 potentiator: -1; Six1-Eya2 inh: 3; gsp agonist: 16%; CtBP-E1A blk: 6

What do the screens show for `CCOC(=O)c1[nH]c(C(=O)O)c(CCN(CC)CC)c1C`?
gsp antag: 3%; D2 agonist: 1.7; D2 potentiator: -6; Six1-Eya2 inh: 3; gsp agonist: -11%; CtBP-E1A blk: 8

What do the screens show for `COc1cc(C(=O)NC(=S)Nc2csc(-c3ccc(F)cc3)n2)cc(OC)c1OC`?
gsp antag: 5%; D2 agonist: 2.0; D2 potentiator: inconclusive; Six1-Eya2 inh: -18; gsp agonist: inconclusive

Results for COc1ccc(S(=O)(=O)NCCSCc2ccco2)cc1Cl ?
gsp antag: -1%; D2 agonist: -3.9; D2 potentiator: -7; Six1-Eya2 inh: -4; gsp agonist: 26%; CtBP-E1A blk: -12

Results for CC(C)(C)c1ccc(-c2cn(-c3ccc(Br)cc3)c3[n+]2CCCS3)cc1 ?
gsp antag: -3%; D2 agonist: -1.1; D2 potentiator: -10; Six1-Eya2 inh: 1; gsp agonist: -38%[inhibitor]; CtBP-E1A blk: 1

How did Cc1ccc(-c2nn(C)c(=O)c3ccccc23)cc1CNC(=O)c1ccco1 do in these assays?
gsp antag: -11%; D2 agonist: -3.9; D2 potentiator: -18; Six1-Eya2 inh: -2; gsp agonist: -12%; CtBP-E1A blk: -1

What do the screens show for `Cc1cc(N)n2ncc(-c3ccc(F)cc3)c2n1`?
gsp antag: 2%; D2 agonist: -1.8; D2 potentiator: 1; Six1-Eya2 inh: 1; gsp agonist: 1%; CtBP-E1A blk: 4

What do the screens show for `Cc1ccc(NC(=O)CN(C)C(=O)c2cc(C)on2)cc1`?
gsp antag: 12%; D2 agonist: 1.4; D2 potentiator: -1; Six1-Eya2 inh: 3; gsp agonist: -5%; CtBP-E1A blk: -1

Results for N#C/C(=C(/O)CCl)c1nc2c(s1)CCc1ccccc1-2 ?
gsp antag: -13%; D2 agonist: 8.5; D2 potentiator: inconclusive; Six1-Eya2 inh: -17; gsp agonist: 4%[15.4 µM]; CtBP-E1A blk: inconclusive
